# Assay outcomes (PubChem BioAssay)
# VACV mCherry inh: vaccinia inhibition (mCherry reporter); Vaccinia virus mCherry reporter infection, fluorescence; about a quarter of the inactives have no number; Potency, µM (titrated, usually from 36.5 µM), inactives show at the top dose activity change, negative = inhibition, hits mostly inhibitors; 310,000 tested, 0.63% active; AID 720579; active = well fitted inhibition curve with a large enough effect; inconclusive = small, poorly fitted or top-dose-only effect; inactive = no such curve, though single readings can be large or run the other way; tested in A549 cells; further: nearly all actives have a fitted effect of over 35% in size; inactives centre near -10
# Vaccinia Venus: inhibitors of vaccinia virus (Venus reporter); Vaccinia virus Venus reporter expression, fluorescence; Potency, µM (highest dose often 36.5 µM), for the others: top-dose activity change, negative = inhibition, hits mostly inhibitors; 330,000 tested, 0.46% active; active means well fitted inhibition curve with a large enough effect; inconclusive means small, poorly fitted or top-dose-only effect; inactive means no such curve, though single readings can be large or run the other way; tested in A549 cells; further: nearly all actives have a fitted effect of over 30% in size; inactives centre near -10
# Active calls of the source: *; i = inactive; u = inconclusive; x = no result given; [ ] = remark or other dose. On the % scale 0 is the no-effect control and ±100 the full control effect; potency means the concentration at half of the fitted maximal effect.
# The line under a structure holds: VACV mCherry inh	Vaccinia Venus
- COc1c(C)cc(Br)cc1C(=O)Nc1ccccc1N1CCN(C(=O)c2ccccc2)CC1
→ -9%	-6%
- COc1cccc(C(=O)COC(=O)CCCC(=O)NC2CCCCC2)c1
→ -12%	-9%
- Cc1ccc2nc(SC(Cc3cc(Cl)ccc3Cl)C(=O)O)[nH]c2c1 (centres undefined)
→ -2%[7.34 µM]	-8%[7.34 µM]
- S=C1SCN(Cc2ccco2)CN1Cc1ccco1
→ u	-20%
- CSc1nc2ccc(S(=O)(=O)NC3CCCCC3)cc2s1
→ -14%	-23%
- COC(=O)C=C1CCC2C3CC(F)C4(O)CC(=O)CCC4(C)C3C(=O)CC12C (centres undefined)
→ i	-12%
- O=c1cc(CSc2ccc(Cl)cc2)nc(-c2ccncc2)[nH]1
→ i	-13%
- CC1CCc2c(sc(NC(=O)c3cc(-c4cccc(Cl)c4)on3)c2C(N)=O)C1 (centres undefined)
→ -6%	-10%
- CCN(c1ccc(OC)cc1)S(=O)(=O)c1nnc(NC(=O)c2ccccc2Cl)s1
→ -15%	-11%
- CCCCCNC(=O)C(C1CC1)n1c(=O)c(-c2ccccc2)nc2ccccc21 (centres undefined)
→ u	-26%
- Cc1cc(-c2ccc(Br)s2)nc(-n2cccc2)n1
→ 0%	1%
- CCCCCN(C(=O)CCC(=O)OCc1ccccc1C)c1c(N)n(CCCC)c(=O)[nH]c1=O
→ u	-26%
- CC(=O)CCc1ccc(OC(=O)c2cccnc2)cc1
→ -7%	-10%
- c1ccc(-c2cnnc(N3CCCCC3)n2)cc1
→ x	-11%
- O=C(NCC(=O)N(Cc1ccccc1)C(C(=O)NC1CCCC1)c1ccncc1)c1ccco1 (centres undefined)
→ -12%	3%
- CC[n+]1ccc(/C=C2\Sc3ccccc3N2CCCS(=O)(=O)[O-])c2ccccc21
→ 0%	31%[activator]
- CCOc1ccccc1NC(=O)Cn1nc(N2CCN(c3ccccc3)CC2)ccc1=O
→ -6%	1%
- CC(OC(=O)C1CCCCC1)c1nc2ccccc2[nH]1 (centres undefined)
→ i	-10%
- CC(=O)Oc1c(-c2ccccc2)oc2c(CC=C(C)C)c3c(c(OC(C)=O)c2c1=O)C=CC(C)(C)O3
→ -2%	16%
- CC(C)CCn1nc(C(=O)OCC(=O)NC(C)c2ccccc2)c2ccccc2c1=O (centres undefined)
→ -11%	-6%
- O=C(Nc1ccccc1C(F)(F)F)C1CCCC1
→ i	-10%
- COc1ccc(-c2ncncc2-c2csc(C)n2)c(O)c1
→ x	-5%
- CCOC(=O)c1[nH]c(C)c(CN(CCc2ccccc2)S(C)(=O)=O)c1C
→ -11%	-10%
- O=C(NC1CC(=O)N(c2ccccc2)C1)c1cccs1 (centres undefined)
→ -7%[7.34 µM]	-10%[7.34 µM]
- COc1ccc(N2CCCC2)c(NC(=O)c2ccc([N+](=O)[O-])o2)c1
→ -12%	-21%
- NC(=O)c1nsc(C(=O)N(c2ccccc2)C(C(=O)NCc2ccc(F)cc2)c2ccco2)c1N (centres undefined)
→ -14%	-4%
- Cc1ccc(/C=[N+](/C)[O-])cc1
→ -2%	-13%
- CCCCn1c(=O)[nH]c(=O)c2c1nc(-c1ccc([N+](=O)[O-])cc1)n2CC
→ u	2%
- O=C(COC(=O)C1C2CC3OC(=O)C1C3C2)Nc1ccc(Br)cc1 (centres undefined)
→ -10%	-15%
- CCOC(=O)c1cc2sc(C)cc2n1CC(=O)N1CCc2ccccc21
→ i	-10%
- CCC(=O)N1CCCn2c1nc1ccccc12
→ -15%	-11%
- COc1ccc(C(=O)NC(=S)Nc2ccc(N3CCN(C(C)=O)CC3)cc2)cc1[N+](=O)[O-]
→ -17%	-14%
- CCC(=O)OCc1cnc(C)c2oc(=O)c(C(=O)Nc3ccc(CC)cc3)cc12
→ -11%	-6%
- COc1cc(OC)c(C(=O)OCCCOC(=O)c2cc(OC)c(OC)cc2OC)cc1OC
→ i	-8%
- CCCc1cnc2c(c1SCC(=O)Nc1cccc(C)c1C)c(=O)n(C)c(=O)n2C
→ -9%	-7%
- COc1ccc(Cl)c(Cn2c(NCc3ccco3)nc3c2c(=O)n(C)c(=O)n3C)c1
→ x	-26%
- O=C(Nc1ccccc1CC[N+](=O)[O-])N1CCN(c2ccccc2)CC1
→ -4%	-1%
- Cc1ccc(OC(C)C(=O)Nc2ccc(S(=O)(=O)Nc3nccs3)cc2)cc1 (centres undefined)
→ -9%	-4%
- CCC(C)NC(=S)Nc1ccccc1 (centres undefined)
→ i	-5%
- Cc1cccc(-c2nc(CSc3nc4c(c(=O)[nH]3)CCC4)c(C)o2)c1
→ -29%	-21%
- Cc1nn(C(=O)c2ccccc2F)c(C)c1S(=O)(=O)N1CCCCCC1
→ 6%	4%
- Cc1ccc(CCNC(=O)Cn2ncc3c([nH]c4ccc(C)cc43)c2=O)cc1
→ -6%	-4%
- CC(C)COc1ccc(/C(O)=C2/C(=O)C(=O)N(CCN(C)C)C2c2ccncc2)cc1 (centres undefined)
→ -20%	-8%
- CCCCNC(=O)CN1C(=O)COc2ccc(S(=O)(=O)N3CCCC3)cc21
→ 2%	-5%
- CCOC(=O)c1cnn(-c2ccc(C(F)(F)F)cn2)c1N
→ -9%	-12%
- CCOC(=O)c1cccc(NC(=O)N2CC(CC)Sc3ccccc32)c1 (centres undefined)
→ -11%	-5%
- CCOc1ccc(NC(=O)CCC(=O)Nc2cc(OC)c(NC(=O)c3ccco3)cc2OC)cc1
→ u	-9%
- COc1cc(OC)cc(C(=O)Nn2cnnc2)c1
→ i	-13%
- COc1cc(NC(=S)NN2CCOCC2)cc(OC)c1
→ i	-8%
- Cc1cccc(NS(=O)(=O)c2ccc(C)c(C(=O)N3CCN(C(=O)c4ccco4)CC3)c2)c1
→ -22%	-7%
- COCC(CN1CCN(C2=NS(=O)(=O)c3ccccc32)CC1)OC(=O)c1ccccc1 (centres undefined)
→ i	-1%
- O=C(COC(=O)c1cccc(Cl)c1Cl)NC1CCCCCC1
→ -4%	-6%
- O=C(CSc1nccn1Cc1ccco1)Nc1ccccc1C(F)(F)F
→ -13%	-10%
- CC(O)[C@H]1CNC(=O)C(=O)N1CCc1cccc2ccccc12 (some centres undefined)
→ i	-5%
- CCOc1ccccc1C1NC(=O)CCC1[N+](=O)[O-] (centres undefined)
→ 0%	-8%
- COc1cccc(NC(=O)CN(C)C(=O)CN2C(=O)NC(C)(c3ccc4ccccc4c3)C2=O)c1 (centres undefined)
→ -2%	-22%
- CC(CCc1ccccc1)NC(=O)c1nnc(Cc2ccc(F)cc2)o1 (centres undefined)
→ -21%	-22%
- COC(=O)c1cccc(-n2c(CCC(=O)O)ccc2-c2ccc(OC)cc2)c1
→ -29%	-21%
- O=C(NC1CCCC1)C(c1ccccn1)N(C(=O)c1csnn1)c1ccccc1 (centres undefined)
→ -11%	8%
- CCOc1cc(C2C(C(=O)OC)=C(C)NC3=C2C(=O)c2ccccc23)c(Br)cc1OC (centres undefined)
→ -13%	-14%

# As entered above.
# Under Vaccinia Venus, CCOc1cc(C2C(C(=O)OC)=C(C)NC3=C2C(=O)c2ccccc23)c(Br)cc1OC (centres undefined) reads -14%
# Under Vaccinia Venus, COc1cc(NC(=S)NN2CCOCC2)cc(OC)c1 reads -8%
# Under VACV mCherry inh, CCOC(=O)c1cccc(NC(=O)N2CC(CC)Sc3ccccc32)c1 (centres undefined) reads -11%

# More results follow:
# The line under a structure holds: VACV mCherry inh	Vaccinia Venus
- COc1ccc(-c2[nH]ncc2CN2CCCC(C(=O)c3ccc(OC)cc3OC)C2)cc1 (centres undefined)
→ -5%	-9%
- COc1ccccc1C1C([N+](=O)[O-])=CC([N+](=O)[O-])=CN1C (centres undefined)
→ -12%	-6%
- CC(CCc1ccccc1)NC(=O)Cc1ccc([N+](=O)[O-])cc1 (centres undefined)
→ -22%	-11%
- CC(C)CC(=O)Nc1ccnn1C1CCN(C(=O)c2ccc(F)cc2Cl)CC1
→ -10%	-10%
- C[C@H]1CN([C@@H](C)CO)C(=O)CCCn2nncc2CO[C@H]1CN(C)C(=O)c1ccccc1
→ -13%	-19%
- Cc1ccccc1CS(=O)(=O)Cc1ccc(C(=O)NCc2cccnc2)o1
→ x	-19%
- O=C(C[C@@H]1C/C=C\CCCC(=O)OC[C@@H]2CCCN2C1=O)N[C@H](CO)Cc1ccccc1
→ -13%	-4%
- COc1ccc(-c2cc(C(F)(F)F)nc(SCC(=O)NCc3ccco3)n2)cc1OC
→ x	-13%
- Cc1ccc(C(=O)NCc2ccc3c(c2)OCO3)cc1S(=O)(=O)N1CCOCC1
→ -5%	-14%
- COc1cccc(NC(=O)Nc2ccc(C)c(Cl)c2)c1
→ -19%	-15%
- CC(C)C(=O)NC(=S)Nc1ccc(S(=O)(=O)N2CCCC2)cc1
→ -21%	-14%
- CC(Nc1nc(C(F)(F)F)nc2ccccc12)c1cccs1 (centres undefined)
→ -14%	-27%
- CCOc1ccc(C(=O)c2cn(CC(=O)Nc3ccc4c(c3)OCCO4)c3ccc(OC)cc3c2=O)cc1
→ -6%	-7%
- CC1CCCCN1C(=S)Nc1ccc(S(=O)(=O)N2CCCCC2)cc1 (centres undefined)
→ -12%	-29%
- CC1CCN(S(=O)(=O)c2ccc(C(=O)Nc3sccc3C(N)=O)cc2)CC1
→ -12%	u
- Cc1onc(-c2c(Cl)cccc2Cl)c1C(=O)N[C@@H]1C(=O)N2[C@@H]1SC(C)(C)[C@@H]2C(=O)O
→ -5%	-14%
- Cc1ccc(S(=O)(=O)N(CC(=O)NC2CC3CCC2C3)c2ccccc2)cc1 (centres undefined)
→ -11%	-18%
- COc1cc(N(C)C)ccc1C=c1c2ccccc2n2c1cc(-c1ccccc1)[n+]2C
→ -22%	-10%
- CCn1c2ccccc2c2cc(CN3CCN(Cc4ccccc4C)CC3)ccc21
→ -23%	-19%
- Cn1nnnc1SCc1nnc(-c2ccc(F)cc2)o1
→ x	-24%
- Cc1ccc(Cl)cc1N=C(N)N=C(N)N
→ -19%	-12%
- O=C(Nc1cc(C(F)(F)F)ccc1N1CCOCC1)C1=COCCO1
→ -4%	-19%
- O=C(NCC1CCCO1)c1onc(CSc2ccc(Cl)cc2)c1C(=O)O (centres undefined)
→ -19%	-5%
- O=C(NCCCOC(=O)c1ccccc1)c1ccccc1
→ -7%	-4%
- c1ccc(COc2cccc(CNCc3cccnc3)c2)cc1
→ -7%	-7%
- COc1cccc(NC(=O)Cn2nc(C)c3c(C)n(-c4ccccc4)nc3c2=O)c1
→ -14%	-14%
- CC1(C)Cc2c(c(N3CCOCC3)nc3sc(C(=O)N4CCCCC4)c(N)c23)CO1
→ u	-25%
- COCCn1c(C(F)(F)F)ccc(NC(=O)c2ccccc2)c1=O
→ -10%	-4%
- CNc1nc(-c2ccc(Cl)cc2)cs1
→ x	-15%
- COc1ccc(-c2ccc([C@H]3[C@H]4C=CC[C@@H](C)[C@@H]4C(=O)N3Cc3ccccc3)c(F)c2)cc1
→ i	-13%
- COC(=O)[C@]12CCCCC=C1N(Cc1ccccc1)C(=O)[C@H](CC(=O)NCCc1ccccc1OC)C2
→ -16%	-13%
- CCOC(=O)C1=C(CP(=O)(c2ccccc2)c2ccccc2)NC(=O)NC1c1ccc(OC)cc1 (centres undefined)
→ -11%	-11%
- O=C(c1ccc(S(=O)(=O)N2CCOCC2)cc1)N1CCc2ccccc2C1
→ -21%	-11%
- Cc1ccccc1NC(=O)C1Cc2ccccc2CN1C(=O)c1ccco1 (centres undefined)
→ -1%	-7%
- COc1ccc(NC(=O)Nc2nnc(N3CCCCCC3)s2)cc1
→ -16%	-20%
- CC(=O)Nc1cccc(Oc2ncccc2[N+](=O)[O-])c1
→ i	-4%
- CN1CCc2nc(NC(=O)COc3ccc4ccccc4c3)sc2C1
→ -15%	-19%
- COc1ccc(S(=O)(=O)N(C)C[C@@H]2OCCCC[C@@H](C)Oc3ccc(NC(=O)NC(C)C)cc3C(=O)N([C@H](C)CO)C[C@@H]2C)cc1
→ -13%	8%
- CC(C(=O)O)C1CCC2C3CC=C4CC(O)CC[C@@]4(C)C3CC[C@]12C (some centres undefined)
→ 29%	0%
- Cc1ccc(S(=O)(=O)N(C)c2ccc(OCC(=O)Nc3ccc(C(=O)N(C)C)cc3)cc2)cc1C
→ -13%	-9%

# Next section, starting with the last 2 of the part before.
# The line under a structure holds: VACV mCherry inh	Vaccinia Venus
- CC(C(=O)O)C1CCC2C3CC=C4CC(O)CC[C@@]4(C)C3CC[C@]12C (some centres undefined)
→ 29%	0%
- Cc1ccc(S(=O)(=O)N(C)c2ccc(OCC(=O)Nc3ccc(C(=O)N(C)C)cc3)cc2)cc1C
→ -13%	-9%
- CC(NC(=O)Cn1ccc2cc(S(=O)(=O)N3CCCCCC3)ccc21)c1ccccc1 (centres undefined)
→ -13%	-12%
- Cc1csc(SCC(=O)Nc2ccc(F)cc2Cl)n1
→ -3%	-11%
- CN1CC(=O)N(CC(=O)Nc2ccc(OC(F)(F)F)cc2)c2ccccc2C1=O
→ 9%	7%
- COc1ccc(-n2c(C)nc3cc(C(=O)NCCN4CCOCC4)ccc32)cc1
→ -15%	-9%
- Cc1ccc(C)c(S(=O)(=O)NCC(c2ccc3c(c2)OCO3)N2CCOCC2)c1 (centres undefined)
→ i	-14%
- COc1ccc(S(=O)(=O)N(C)C)cc1NC(C)C(=O)Nc1cccc(C#N)c1 (centres undefined)
→ -7%	-3%

# Reprinted at random: 3 entries already listed
# The line under a structure holds: VACV mCherry inh	Vaccinia Venus
- COc1ccc(S(=O)(=O)N(C)C)cc1NC(C)C(=O)Nc1cccc(C#N)c1 (centres undefined)
→ -7%	-3%
- Cc1ccc(C)c(S(=O)(=O)NCC(c2ccc3c(c2)OCO3)N2CCOCC2)c1 (centres undefined)
→ i	-14%
- CC(NC(=O)Cn1ccc2cc(S(=O)(=O)N3CCCCCC3)ccc21)c1ccccc1 (centres undefined)
→ -13%	-12%
